From PubChem BioAssay
AID504770 – growth inhibitors of E. coli YBA685 in a screen for V. cholerae RctB (chromosome II replication) inhibitors. E. coli YBA685 rctB-dependent plasmid, OD600 growth, 3 h; stronger effect = lower value. hit rate 0.27% among 130,000. z-score (test concentration not listed);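 active = z-score under -2 on both plates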;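 note: wells of about 30 µL received 100 nL stock; score is relative to mean and SD of the test wells; the first replicate is given; strong numbers were not always called active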
CapD inh – inhibitors of Bacillus anthracis CapD enzyme; purified CapD enzyme, fluorescence intensity read-out; stronger effect = lower value; some hits fall short of the stated cut; z-score (no concentration beside the values); hit rate 0.23% among 140,000; AID 492967;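 active = z-score under -4 in either of two replicates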;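 note: stock transfer was 100 nL into about 40 µL; score is relative to mean and spread of the plate; one replicate is shown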
Active calls of the source: *; . = not tested or not shown; & = joins results of further samples.

SMILES	AID504770	CapD inh
O=C(CCN1C(=O)c2ccccc2C1=O)N1CCN(C/C=C/c2ccccc2)CC1	.	0.015
COc1ccc(-c2nnn3c2nc(N)c2ncc(C(F)(F)F)cc23)cc1OC	.	0.825
CC1CCCCN1C(=O)c1ccc(N2CC3CC(C2)c2cccc(=O)n2C3)c(NC(=O)Cc2c(F)cccc2Cl)c1 (stereo not given)	.	0.15
O=S(=O)(NCc1ccccc1F)c1cccc(F)c1	.	0.555
CCC(C(=O)Nc1c(C)n(C)n(-c2ccccc2)c1=O)c1ccccc1 (stereo not given)	-1.85	1.33
O=C1OC(Nc2ccc(F)cc2F)c2ccccc21 (stereo not given)	.	1.09
CC(C)n1cc(-c2cc(C(=O)NCCc3ccccc3)ccc2[N+](=O)[O-])cn1	.	-0.14
COC(=O)c1ccccc1NC(=O)CSc1nc2ccsc2c(=O)n1Cc1ccc(C)cc1	0.45	4.27
CCOc1ccccc1OCC(=O)NC(C)c1ccccc1 (stereo not given)	0.45	0.09
Brc1ccc(C2=Nn3c(Cn4nnc5ccccc54)nnc3SC2)cc1	0.25	0.835
CC(=O)NC1C(OCc2ccccc2)OC(COC(c2ccccc2)(c2ccccc2)c2ccccc2)C(O)C1O (stereo not given)	.	-0.06
Cc1ccc(CNc2ccc(C(=O)O)cc2)cc1	1.6	0.3
CC(C)(C)NC(=O)/C(C#N)=C/c1ccc(OC(F)F)cc1	-0.7	.
O=S(=O)(c1ccc2c(c1)OCCO2)N1c2cccc3cccc(c23)S1(=O)=O	-0.8	.
CC(=O)N/C(=C\c1ccccc1)C(=O)Nc1cccc(C#N)c1	-0.55	0.275
CCOC(=O)c1cccc(C(=O)Nc2ccc(Cl)cn2)n1	-0.55	1.28
COc1ccc(-c2csc3ncnc(N4CCC5(CC4)OCCO5)c23)cc1	0.3	0.035
Cc1cc(C)cc(N2C(=S)N(c3ccccc3)C3CS(=O)(=O)CC32)c1 (stereo not given)	0.1	-0.17
CCOC(=O)/C(C#N)=C\C1=C(N2CCCC2)CC(C)(C)OC1	0	.
O=C(c1coc2ccccc2c1=O)N1CCN(c2ccccc2)CC1	-0.3	0.08
CCc1ccc2c(c1)S(=O)(=O)C(C(F)(F)F)CO2 (stereo not given)	2.45	-6.58*
CC(C)(C)c1csc(-c2ccc(/C=C(\C#N)S(C)(=O)=O)cc2)n1	-1.15	0.765
O=C(NCc1cccc(C(F)(F)F)c1)c1ccc(S(=O)(=O)NCc2ccco2)cc1	-0.05	.
CCN(CC)S(=O)(=O)c1cccc(C(=O)N2CCc3ccccc32)c1	-0.65	.
Cc1ccc(NC(=O)C(C)NC(=O)OCc2ccccc2)cc1C (stereo not given)	-0.1	-0.135

Fetched by compound from the entries so far, five records:
SMILES	AID504770	CapD inh
CCOc1ccccc1OCC(=O)NC(C)c1ccccc1 (stereo not given)	0.45	0.09
CCOC(=O)c1cccc(C(=O)Nc2ccc(Cl)cn2)n1	-0.55	1.28
CC(C)(C)c1csc(-c2ccc(/C=C(\C#N)S(C)(=O)=O)cc2)n1	-1.15	0.765
O=C1OC(Nc2ccc(F)cc2F)c2ccccc21 (stereo not given)	.	1.09
O=C(CCN1C(=O)c2ccccc2C1=O)N1CCN(C/C=C/c2ccccc2)CC1	.	0.015

(list continues)
SMILES	AID504770	CapD inh
c1ccc(CCc2nn3c(COc4ccccc4)nnc3s2)cc1	-1	-0.845
COC(=O)c1cc(N2C(=O)/C(=C/c3ccc(-c4ccc(Br)cc4)o3)C=C2c2ccccc2)ccc1Cl	.	0.53
O=C(O)C(c1ccccc1)n1cnnn1 (stereo not given)	-0.7	.
CCCc1ccc(-c2cc(N)n[nH]2)cc1	-0.4	1.12
O=C1N(CN2CCOCC2)c2ccccc2C12OCC(CCl)O2 (stereo not given)	.	-1.17
O=C(/C=C/c1ccc(F)c(Cl)c1)N1CCN(C(=O)C2CCCO2)CC1 (stereo not given)	-0.45	.
OC(CN1CCN(Cc2ccccc2)CC1)C(F)(F)F (stereo not given)	-0.65	0.44
C=CCc1c(O)ccc2c(C)cc(=O)oc12	-0.35	111
CCC(C)(C)NC(=S)Nc1cccc(OC)c1	-0.55	1.11
CCOC(=O)c1cnc2c(C(F)(F)F)cccc2c1Cl	0.5	.
CCOC(=O)c1c(C)csc1NC(=O)CSc1ccc(Cl)cc1	-0.35	-0.465
COc1cc(C2C(C#N)=C(N)Oc3n[nH]c(C)c32)ccc1OCc1c(F)cccc1Cl (stereo not given)	.	0.435
N/C(=N\c1nc2ccccc2o1)NC(=O)c1ccccc1	2.2	0.345
O=C(Cc1cccs1)NCC1CCCCC1	-0.35	.
O=C(CCc1ccccc1)Nc1ccon1	-0.1	0.29
O=[N+]([O-])c1c(NCCCO)cc(N(CCc2ccccc2)Cc2ccccc2)c2nonc12	.	-0.36
O=S(=O)(NCCn1ccc2ccccc21)c1ccc(Cl)cc1	-1.05	.
Cn1cc(Cl)c(C(=O)NC2CCCC2)n1	1.4	-0.175
COc1ccc(OC)c(CCNC(=O)Cn2nc(Cc3ccncc3)c3ccccc3c2=O)c1	-0.05	0.735
CSc1c(CC(=O)NCCc2ccccc2)n(C)c2ccccc12	0.2	0.235
CC(C)(C)OC(=O)N1C[C@@H]2C(NC(=O)c3nsc(Cl)c3Cl)[C@@H]2C1 (stereo not given in full)	0.5	-0.235
S=c1nc(-c2ccccc2)[nH]c2c1Cc1ccccc1O2	0.5	-0.66
CCOc1ccccc1-n1nnnc1SC(C)C(=O)OC (stereo not given)	1.95	.
O=C(N/N=C\c1ccc(Cl)cc1Cl)c1ccccc1-n1cccc1	.	-0.41
CN1CCN(CCCN2c3ccccc3Sc3ccc(Cl)cc32)CC1	-0.05	-0.11&-1.01

Additional entries.
SMILES	AID504770	CapD inh
Cc1ccc(Oc2ncccc2NC(=O)C(=S)NCc2ccccc2)c2c1CCC2	0.8	0.115
COc1cc(/C=N/NC(=O)CC#N)ccc1O	.	0.82
O=C(Nc1cccc(C(=O)O)c1)/C(=C\c1ccco1)NC(=O)c1ccc(Br)cc1	0.45	0.78
NC(=O)NCc1ccccn1	-0.65	0.375
COc1cc(C(=O)NCc2cccnc2)ccc1OCc1ccc(Cl)cc1	-0.75	-0.125
Cc1ccc(S(=O)(=O)c2cnc3ccccc3n2)cc1	1.6	-0.525
CCOC(=O)CSc1nc2nccnc2c(=O)n1Cc1ccccc1	2.1	0.01
Cc1ccc(CNC(=O)Nc2cccc(Cl)c2)n1C	0.1	1.01
C=CC#CC1(O)CC(C)[N+](C)(C)CC1C (stereo not given)	0.35	0.525
Brc1cc2c(cc1CSc1nc3ccccc3o1)OCCO2	1.3	.
CCOC(=O)c1ccc(-n2nc(C)c(C(=O)OCC)c2C)cc1	-0.75	0.395
O=C(c1cnc(Nc2ccccc2Cl)s1)c1ccc(Cl)cc1Cl	.	2.12
Cc1ccc(N2C(=O)CC3(CCCC3)C2=O)cc1	-0.35	.
CC(=O)OC(Cn1ccnc1)c1ccccc1 (stereo not given)	0.65	0.525
CCOC(=O)c1cnc2ccc(C)cc2c1Nc1cccc(C)c1	.	-0.435
CNC(=O)CCCc1nc(-c2ccccc2Cl)no1	-2.05	0.095
CC(OC(=O)c1oc2ccccc2c1COc1ccccc1)C(N)=O (stereo not given)	-0.1	.
O=C(CSc1nnc(-c2ccccc2)o1)c1ccc(Br)cc1	.	-0.63
Cn1c(=O)c2c(ncn2CCNC2=NCCC2)n(C)c1=O	-0.35	-0.55
CCCCCn1c(SCc2ccccn2)nc2cc(C(=O)N3CCN(C(=O)OCC)CC3)ccc2c1=O	.	-0.87
O=C(c1ccc2cc[nH]c2c1)N1CCN(c2ncccc2C(F)(F)F)CC1	.	0.05
CCC(C)NC(=O)c1ccc2c(=O)n(CCC3=CCCCC3)c(=O)[nH]c2c1 (stereo not given)	-0.75	0.255
NS(=O)(=O)c1ccc2nc(NC(=O)c3cccs3)sc2c1	-0.7&0.25	2.33
Cc1cc(S(=O)(=O)Oc2c(Cl)cccc2Cl)cc(C)c1F	.	-0.13
CSC1=NC(=Nc2ccccc2C)C2(CCC(C(C)(C)C)CC2)N1c1ccccc1 (stereo not given)	.	0.87

Compound profiles, from the list above. Order of screens: AID504770, CapD inh
`NS(=O)(=O)c1ccc2nc(NC(=O)c3cccs3)sc2c1` is listed with -0.7&0.25, 2.33
`Cc1ccc(CNC(=O)Nc2cccc(Cl)c2)n1C` is listed with 0.1, 1.01
`CC(OC(=O)c1oc2ccccc2c1COc1ccccc1)C(N)=O` (stereo not given) is listed with -0.1, .

Returning to the listing; the two compounds before the break are reprinted first.
SMILES	AID504770	CapD inh
Cc1cc(S(=O)(=O)Oc2c(Cl)cccc2Cl)cc(C)c1F	.	-0.13
CSC1=NC(=Nc2ccccc2C)C2(CCC(C(C)(C)C)CC2)N1c1ccccc1 (stereo not given)	.	0.87
CN1CCN(CCNC(=O)c2ccc(Cn3c(SCc4ccccc4)nc4cccnc43)cc2)CC1	1.2	94.1
CCOC(=O)c1[nH]c(C)c(C(=O)NC)c1C	-0.5	-0.5
O=C(c1ccc(-n2cc(-c3nc4ccccc4o3)cn2)cc1)N1CCOCC1	.	0.195
CCCC[n+]1c(C)sc2ccccc21	-0.65	-0.015
O=C(CS(=O)(=O)Cc1ccccc1)N1CCCc2ccccc21	0.3	0.345
CCc1ccccc1NC(=O)CN1CCN(C(=O)CCS(=O)(=O)c2ccc(C)cc2)CC1	0.2	.
O=S(=O)(Cc1cccc(C(F)(F)F)c1)Cc1nc(-c2ccc(C(F)(F)F)cc2)cs1	-1	9.68
O=C(COc1ccccc1O)Nc1ccccc1	-0.25	0.06
Cc1cc(C)nc(N(C)c2ccc(OC(C)C)cc2)n1	.	0.365
CN(C)CCCNC(=O)c1cc(C(=O)c2cccc(Cl)c2Cl)c[nH]1	.	-0.395
O=C(/C=C/c1cccs1)OCC(=O)N1CCCC1	-1.4	-3.93
CCCCSc1nnc2c(n1)OC1(CCCCC1)Nc1ccccc1-2	.	0.89
CCOC(=O)Nc1ccc2c(c1)N(C(=O)NC)c1ccccc1CC2	.	0.03
Cc1c(C)c(C)c(CS/C(N)=N/N)c(C)c1C	-0.75	-0.145
Cc1cc2cc(CNC(=O)Cc3ccccc3)ccc2[nH]1	-0.25	0.42
CCN1CCCC1CNC(=O)c1ccc2c(c1)NC(=O)c1ccccc1S2 (stereo not given)	-0.2	-1.12
CCCN1C2=C(C(=O)CCC2)C(c2ccc(O)c(Br)c2)C2=C1CCCC2=O	-0.5	4.09
Cc1c(N=C2C(=O)Nc3ccccc32)c(=O)n(-c2ccccc2)n1C	-0.8	-1.59
COc1ccc(OCCN(C)C(=O)c2ccc(-n3cccn3)cc2)cc1	-0.85	.
CC(C)(O)P(C)(=O)c1ccccc1 (stereo not given)	-0.6	0.42
O=C(CSc1nnc(-c2cccnc2)n1C1CC1)c1c[nH]c2ccccc12	0.95	.
Nc1nc(S(=O)(=O)c2ccc(Cl)cc2)c(Cl)s1	1.5	.
C=CCC(C(=O)OC)N1CCOCC1 (stereo not given)	0.95	.
COc1ccc(-c2nnc(Oc3ccc(C)cc3)c3ccccc23)cc1	.	-0.17
Cc1cc(C)n(-c2nc(N(c3ccccc3)c3ccccc3)nc(-n3nc(C)cc3C)n2)n1	-0.6	.

A second format for part of the listing above:
Compound,AID504770,CapD inh
O=C(CS(=O)(=O)Cc1ccccc1)N1CCCc2ccccc21,0.3,0.345
CCc1ccccc1NC(=O)CN1CCN(C(=O)CCS(=O)(=O)c2ccc(C)cc2)CC1,0.2,.
O=S(=O)(Cc1cccc(C(F)(F)F)c1)Cc1nc(-c2ccc(C(F)(F)F)cc2)cs1,-1,9.68
O=C(COc1ccccc1O)Nc1ccccc1,-0.25,0.06
Cc1cc(C)nc(N(C)c2ccc(OC(C)C)cc2)n1,.,0.365

(more compounds)
SMILES	AID504770	CapD inh
O=C1C2C3C=CC(C3)C2C(=O)N1NC(=O)C1(c2ccc(Cl)cc2)CCC1 (stereo not given)	.	-0.13
CN(C)CCCNc1nc(-c2cccs2)nc2sc3c(c12)CCCC3	1.3	.
CCc1nn(CC(=O)NC(C)c2ccc3c(c2)OCCO3)c(=O)c2cc3sc(C)cc3n12 (stereo not given)	-0.6	0.175
Cc1onc(-c2c(Cl)cccc2Cl)c1NC(=O)NNc1cc(Cl)ccc1Cl	0.55	0.695
O=C(O)Cn1nnc(N2CCCC2)n1	0.9	-0.01
CCOC(=O)c1c(NC(=O)CSc2nc(C)nc3sc4c(c23)CCC4)sc(C(=O)OC)c1C	.	-0.54
COc1cc(C)c(N)cc1C(C)C	-0.1	.
O=C(CSc1ncccc1C(=O)Oc1ccccc1Cl)NCCc1ccccc1	-0.7	-0.005
O=C(CCN1C(=O)c2cccnc2Sc2ccccc21)N1CCCCC1	0.2	0.365
COc1cccc(-n2c(=O)c3sccc3n(Cc3ccc(F)cc3Cl)c2=O)c1	0.45	-0.845
O=C(NN1S(=O)(=O)c2ccccc2S1(=O)=O)C(O)c1ccccc1 (stereo not given)	.	-1.63
Cc1ccc(S(=O)(=O)N2CCN(C(=O)CSc3ccccn3)CC2)c(C)c1	-0.1	.
O=C1C=C(c2cccs2)C[C@H](c2ccccc2)[C@H]1n1cnc([N+](=O)[O-])c1	.	0.42
COc1ccc(-c2noc(CC(=O)N(C)c3ccccc3)n2)cc1	-0.95	-0.675
CS(=O)(=O)c1ccc(-c2noc(C3CCN(S(=O)(=O)c4ccccc4)CC3)n2)cc1	.	-0.165
CCOc1cc(=O)oc2ccccc12	.	0.575
CC1=C(C(=O)Nc2ccc(C)cc2)C(c2ccccc2Cl)n2ncnc2N1 (stereo not given)	.	-0.645
C=CCSc1nnc2n(-c3ccccc3)c(=O)c3c(C)c(C)sc3n12	-0.05	3.55
COc1ccc2ccccc2c1CN1CCC(NS(=O)(=O)c2cc(Br)c(Cl)s2)C1 (stereo not given)	.	0.64
COc1ccc2c(=O)c(Oc3ccccc3)c(C)oc2c1C	-0.55	-0.11
CC(C)N1CCN(c2ncnc3scc(-c4ccccc4)c23)CC1	2.7	0.525
O=C(NCc1ccccc1)C12CC3CC(CC(C3)C1)C2	2.75	0.32
CC(C)(C)c1ccc(CSC2=CS(=O)(=O)c3ccccc3N2)cc1	.	-0.67
